Sfp PPTase inh: inhibitors of Bacillus subtilis Sfp phosphopantetheinyl transferase. Q9F4F7. Biochemical Sfp PPTase activity, qHTS. Potency, µM, without a hit: max response, negative = inhibition, most hits filed as inhibitors. hit rate 3.5% among 310,000; active = well fitted inhibition curve with a large enough effect; inconclusive = small, poorly fitted or top-dose-only effect, or another doubt; inactive = no such curve, though single readings can be large or run the other way;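 note: the enzyme is Sfp with the accession as filed and its product quenches rhodamine fluorescence; potency is the fitted concentration of half-maximal effect; 0% = enzyme reaction without inhibitor and -100% = no enzyme wells; top concentration of the series not given in the record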
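Step 1, compound plus 15 nM Sfp-PPTase, 15 min, room temperature. Step 2, add rhodamine-CoA (5 uM) and BHQ-2-YbbR (12.5 uM). Step 3, read 525/598 nm fluorescence at 0 and 30 min.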
gsp antag: gsp mutant antagonism. gsp-mutant cells, cAMP HTRF, 30 min; control for the full effect not named in the record. Potency, µM (titrated, usually from 76.9 µM), for inactives: at the top dose activity change, negative = inhibition, most hits filed as inhibitors. hit rate 0.4% among 340,000; active = falling curve of any shape with a large fitted effect; inconclusive = falling curve, mostly with a smaller effect; inactive = flat or rising curve; cell line not stated here;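 note: intracellular cAMP measured with PDE inhibitor Ro 20-1724 present during compound exposure; potency is the fitted concentration of half-maximal effect; % is set by controls: 0 for no effect and ±100 for the full control effect; nearly all actives have a fitted effect of over 65% in size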
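HTRF cAMP measurement after 30 min RT detection following 30 min, 37C compound treatment alongside […] (added as 300 uM solution) in G418-selected cells seeded at 2000/well and grown 16–24 h.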
TRPV1 potentiator: potentiators of human vanilloid receptor 1 (TRPV1); hit rate 0.02% among 320,000; TRPV1-expressing cells, Fluo-8 calcium influx, capsaicin EC20 potentiation; host cell line not named in the record; control for the full effect not named in the record; Q8NER1; potentiation, % at 8.33 µM; active means potentiation above 80%; inconclusive means 30% to 80%; inactive means below 30%; note: 0% is about no effect
Target sequence (Q8NER1 whole entry, looked up): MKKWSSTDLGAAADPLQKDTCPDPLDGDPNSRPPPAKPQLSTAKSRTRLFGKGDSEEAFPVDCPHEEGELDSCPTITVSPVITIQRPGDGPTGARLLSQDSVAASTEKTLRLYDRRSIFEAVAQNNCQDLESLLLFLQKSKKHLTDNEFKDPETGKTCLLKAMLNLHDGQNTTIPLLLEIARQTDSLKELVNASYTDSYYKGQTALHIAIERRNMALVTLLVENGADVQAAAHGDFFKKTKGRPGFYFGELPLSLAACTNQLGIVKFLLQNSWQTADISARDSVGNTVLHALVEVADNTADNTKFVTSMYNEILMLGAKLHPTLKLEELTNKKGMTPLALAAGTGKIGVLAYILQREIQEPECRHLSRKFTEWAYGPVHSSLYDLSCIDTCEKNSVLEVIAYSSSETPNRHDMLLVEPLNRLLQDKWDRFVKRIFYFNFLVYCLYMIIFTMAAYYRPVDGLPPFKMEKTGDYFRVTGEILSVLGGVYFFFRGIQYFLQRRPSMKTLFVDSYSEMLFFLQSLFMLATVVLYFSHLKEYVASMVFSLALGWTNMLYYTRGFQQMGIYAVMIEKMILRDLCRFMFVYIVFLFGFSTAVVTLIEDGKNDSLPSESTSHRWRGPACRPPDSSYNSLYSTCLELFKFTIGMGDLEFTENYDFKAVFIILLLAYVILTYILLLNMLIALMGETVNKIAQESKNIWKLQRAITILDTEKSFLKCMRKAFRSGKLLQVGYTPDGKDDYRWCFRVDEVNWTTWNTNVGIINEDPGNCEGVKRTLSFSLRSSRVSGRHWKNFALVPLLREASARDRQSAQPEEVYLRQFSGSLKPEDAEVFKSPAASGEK
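Cells expressing TRPV1 were dye-loaded with Fluo-8 and read kinetically: 10 s baseline, 3 min after compound (agonist portion), then 2 min after EC20 capsaicin (allosteric enhancer portion). Calcium-bound dye fluorescence at 480/520 nm.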
ClpP mod: qHTS Assay for Activators of ClpP; ATP-dependent Clp protease proteolytic subunit (Bacillus subtilis (strain 168)), P80244; purified B. subtilis ClpP, FRET peptide cleavage, 20 min; Potency, µM (doses to about 57.5 µM), inactives show top-dose activity change, negative = active; hit rate 1.9% among 340,000; AID 651965, 2013; active = well fitted falling curve with a large enough effect; inconclusive = small, poorly fitted or top-dose-only effect; inactive = no such curve, though single readings can be large or run the other way; note: potency is the fitted concentration of half-maximal effect; the source files actives as falling curves though it sought activators and does not explain the sign; nearly all actives have a fitted effect of over 65% in size; many hits overshoot -100%
Target sequence (P80244 whole entry, looked up): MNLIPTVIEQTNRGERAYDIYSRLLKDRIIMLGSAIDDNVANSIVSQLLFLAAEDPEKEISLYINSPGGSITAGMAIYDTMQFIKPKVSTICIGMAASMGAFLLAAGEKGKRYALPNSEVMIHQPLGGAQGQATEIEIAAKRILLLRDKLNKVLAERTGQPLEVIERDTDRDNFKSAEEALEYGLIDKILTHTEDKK
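FRET quenching reversal measured ClpP activation: 10 microg/mL B. subtilis ClpP at pH 8 with the FRET-FV decapeptide, read at 430 nm after 320 nm excitation. The 20-min minus 0-min signal was scaled between DMSO/no-enzyme wells and ADEP (5.8 microM final).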
CtBP-E1A inh: CtBP/E1A binding inhibition; AlphaScreen GST-E1A/His-CtBP binding, 1536-well; active compounds read low; control for the full effect not named in the record; activity change, % (concentration not given with the values); hit rate 0.49% among 340,000; in the data active means activity change below about -65%; inconclusive means about -30% to -65%; inactive means above about -30%; note: % is set by controls: 0 for no effect and ±100 for the full control effect
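Protein mix (5X: 125 nM each GST-E1A, His-CtBP) was incubated with pinned compound 2 h at 37 deg C in dark, in 50 mM Tris pH 8.0 buffer with 300 mM NaCl. Glutathione donor and nickel acceptor beads followed; AlphaScreen signal read after 1 h.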
gsp agonist: agonists of gsp mutant (McCune-Albright syndrome); gsp mutant cells, cAMP HTRF, 30 min; control for the full effect not named in the record; Potency, µM (titrated, usually from 76.9 µM), inactives show at the top dose activation (cAMP increase), usual class: activators; hit rate 0.13% among 340,000; active = well fitted activation curve with a large enough effect; inconclusive = small, poorly fitted or top-dose-only effect, or another doubt; inactive = no such curve, though single readings can be large or run the other way; cell line not stated here;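 note: phosphodiesterase inhibitor Ro 20-1724 added with compounds to block cAMP breakdown; potency is the fitted concentration of half-maximal effect; nearly all actives have a fitted effect of over 60% in size; about a fifth of the inactives were tested at one dose only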
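Cells stably selected in G418 were plated at 2000/well, grown 16-24 hr, then given compounds in DMSO with the PDE inhibitor […] (300 uM solution added) for 30 min at 37C; cAMP was read by HTRF.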
Menin-MLL FL inh: inhibitors of human menin-MLL interaction, wild-type MLL peptide; FP activity change, % at 61.4 µM; Fluorescence polarization, fluorescein-MLL peptide displacement from menin; 290,000 tested, under 10 active; inconclusive = falling polarisation curve, or a change in total fluorescence; inactive = total fluorescence flat and polarisation flat or rising; no compound was filed as active; the % refers to the polarisation; negative = inhibition;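 note: % of control where 0% means no effect; inhibitors lower the polarisation; unlabelled MLL peptide was the positive control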
An asterisk follows results filed as active; ? = inconclusive; / = no result given; [ ] = dose if it differs, or a comment. This is a random part of the collection; 5.3% or so of the library scored in one or more.

Each structure is followed by: Sfp PPTase inh	gsp antag	TRPV1 potentiator	ClpP mod	CtBP-E1A inh	gsp agonist	Menin-MLL FL inh
> COc1ccc(-c2nn(-c3ccccc3)cc2/C=C(\CC(=O)O)c2nc3ccccc3s2)cc1OC
    -60%	-25%	29	/	0	0%[15.4 µM]	3.1
> Cc1ccc([N+](=O)[O-])cc1NC(=O)C(C)Sc1nnc(C)n1CC1CCCO1 (stereo not drawn)
    27%	7%	0	/	-8	1%[15.4 µM]	-0.5
> CCCc1c(C)[nH]c2nc3ccccc3n2c1=O
    4%	5%	0	1.6%	9	-8%[15.4 µM]	6.8
> O=C1Nc2ccccc2C1=O
    /	8%	/	-0.1%	1	/	/
> NS(=O)(=O)c1cccc(NC(=O)CSc2ncc(C(F)(F)F)cc2Cl)c1
    -21%	29%	-22	-2.8%	16	12%	-1.0
> Cc1ncc(C23CC4CC(CC(C4)C2)C3)[nH]1
    11%	22%	7	-0.3%	-2	-24%	1.6
> CCOC(=O)N1CCN(C(=O)c2cn(-c3ccc(C)c(C)c3)c(=O)c3ccccc23)CC1
    24%	-15%	9	-5.9%	8	20%	2.0
> O=C(N/N=C/c1ccc(N2CCCCC2)o1)C(O)(c1ccccc1)c1ccccc1
    8.9µM*	/	20	/	/	/	18
> CC1(C)NC(=O)N(CCOc2cccc(Cl)c2Cl)C1=O
    -8%	10%	20	-3.5%	44	-23%	0.7
> O=C(CCC1CCCN(C(=O)c2cccc(F)c2)C1)N1CCN(c2ccccn2)CC1 (stereo not drawn)
    1%	8%	5	-14%	-1	-26%	/
> CCOc1ncccc1C(=O)Nc1cccc(Cl)c1Cl
    17%	?	-1	/	5	25%[15.4 µM]	1.0
> CCN(CC)C(=O)C1=C(C)N(Cc2ccccc2)C(=O)C(CC(=O)NCc2cccc3ccccc23)C1 (stereo not drawn)
    /	/	/	1.4%	1	17%	/
> COc1cc(OC)cc(C(=O)Nc2ccc(N3CCN(C(=O)c4cccs4)CC3)cc2)c1
    -2%	18%	-5	-0.5%	-1	-3%[15.4 µM]	/
> Cc1cccc(CNC(=O)CCCn2nc(C)c3c(C)n(-c4ccccc4)nc3c2=O)c1
    -4%	-20%	8	-4.8%	/	-95%[inhibitor]	/
> O=C(CCNC(=O)c1ccc(Cl)cc1)NCc1ccco1
    /	16%	/	1.6%	16	-21%	/
> COc1ccccc1C(=O)Nc1ccc2c(c1)C(=O)NC2=O
    -13%	2%	-6	4.1%	2	6%	1.2
> COc1ccccc1-n1cnc2sc(C)c(C)c2c1=O
    9%	4%	26	-2.7%	-3	?	5.3
> Cc1cccc(/C=C2/C(=O)/C(=C/c3ccccc3C)C3CCC2N3C)c1 (stereo not drawn)
    1%	7%	-8	0.5%	16	-32%[inhibitor]	2.0
> CCOc1ccc(CC2CCC(=O)NC2=O)cc1 (stereo not drawn)
    13%	4%	-24	0.0%	/	7%	0.8
> COCCOC1CCN(Cc2cn(Cc3ccccc3)nc2-c2cc3ccccc3o2)CC1
    0%	6%	6	-18%	/	13%	0.9
> Cc1ccc2c(c1)C(c1ccccc1)N(C(=O)c1c(F)cccc1Cl)CC(=O)N2 (stereo not drawn)
    4%	-11%	-9	-3.9%	-27	?	-1.8
> CC(C)N1CCN(Cc2nc3c(s2)CCCC3)CC1CCO (stereo not drawn)
    12%	14%	27	0.0%	-1	-1%[15.4 µM]	0.8
> C=CCN(CC=C)CC(=O)Nc1cccc(Oc2cnccn2)c1
    15%	5%	-8	-1.4%	0	10%	-4.6
> Cc1oc(C(=O)O)cc1CSCc1ccoc1C(=O)O
    -4%	-2%	-2	-3.0%	6	9%	-0.2
> COc1cccc(-n2ccnc2SCC(=O)N2CCCc3ccccc32)c1
    -4%	17%	-26	0.4%	0	0%	0.7
> CC(=O)c1ccccc1NC(=O)COC(=O)c1cc(C)oc1C
    /	1%	-14	-0.4%	/	-28%	/
> COc1ccc(S(=O)(=O)N2CCC(C(N)=O)(N3CCCCC3)CC2)cc1
    6%	2%	-10	-0.1%	6	11%	0.3
> CCOC(=O)N1CCN(C(=O)CSc2nnc(C3COc4ccccc4O3)o2)CC1 (stereo not drawn)
    10%	-2%	1	-0.7%	2	-38%[inhibitor]	0.0
> O=C(N/N=C/c1cccc(Br)c1)c1ccc(N2CCCC2=O)cc1
    3%	32µM*	-6	0.4%	-8	4%[15.4 µM]	-1.0
> O=[n+]1c2c(n([O-])c3cc(F)c(N4CCCC4)cc31)CCCC2
    9%	2%	6	-2.6%	5	24%	?
> CCN(C(=O)c1ccc(Cl)c(S(=O)(=O)Nc2c(C)n(C)n(-c3ccccc3)c2=O)c1)c1ccccc1
    /	-10%	/	-2.2%	6	-12%	/
> O=C(Nc1ccc(OC(F)(F)C(F)F)c(NC(=O)c2ccc(F)cc2)c1)c1ccc(F)cc1
    /	22%	/	-0.9%	11	-6%	/
> Cc1cccc(NC(=O)C2CC(=O)OC23CCCCC3)c1 (stereo not drawn)
    4%	6%	5	0.4%	23	-38%[inhibitor]	-1.0
> COCC(C)n1c(SCC(=O)Nc2ccc3c(c2)OCCO3)nc2ccccc2c1=O (stereo not drawn)
    /	-16%	11	-2.1%	-3	-64%[inhibitor]	/
> Cc1ccc(NC(=O)COC(=O)Cc2ccsc2)cc1S(=O)(=O)N1CCOCC1
    5%	-10%	-11	-0.9%	-3	-53%[inhibitor]	4.4
> COc1ccc([N+](=O)[O-])cc1NC(=O)Cc1noc2ccc(C)cc12
    6%	-49%	30	/	-5	8%[15.4 µM]	0.8
> CC(C)c1ccc(/C=C/C2=NNC(=O)CC2)cc1
    11%	9%	-7	/	/	-6%[15.4 µM]	2.4
> COc1cccc(-n2nnnc2SCC(=O)Nc2ccc(C(C)=O)cc2)c1
    1%	-8%	-31	0.5%	1	9%	2.2
> Cc1ccc(NC(=O)C2CCN(c3cnccn3)CC2)cc1
    14%	4%	-18	-3.1%	10	-7%	0.1
> O=C(CCCNC(=O)/C(=C/c1ccc(Br)cc1)NC(=O)c1ccccc1)OCc1ccccc1
    18%	-11%	2	/	15	-3%[15.4 µM]	2.9
> CSc1nc2c(c(=O)[nH]1)C(c1ccc(C(F)(F)F)cc1)CC(=O)N2 (stereo not drawn)
    17%	-5%	0	/	-10	4%[15.4 µM]	0.8
> S=C(Nc1ccc(Br)cc1Cl)N1CCCC1
    10%	-1%	-12	-0.3%	4	2%	/
> CCc1c(C)[nH]c2ccccc2c1=O
    28%	6%	-9	-9.8%	-6	3%	3.2
> Cc1cc2c(c(=O)n1Cc1cccnc1)C(c1ccc(F)cc1)C(C#N)=C(N)O2 (stereo not drawn)
    8%	-3%	6	-0.3%	5	0%	0.6
> OCCN1CCOCCN(CCO)CCN(CCO)CC1
    -4%	10%	-5	1.1%	2	-15%	4.1
> COc1ccc(S(=O)(=O)N(C)C)cc1NCC(=O)Nc1cccc2ccccc12
    /	-10%	/	/	5	6%[15.4 µM]	/
> CCCCCN(C(=O)CCC(=O)OCC(=O)c1ccc(C(C)CC)cc1)c1c(N)n(CCCC)c(=O)[nH]c1=O (stereo not drawn)
    /	-5%	13	/	-9	7%[15.4 µM]	/
> CS(=O)(=O)c1ccc(C(=O)OCC(=O)NC(=O)C2CCCCC2)cc1[N+](=O)[O-]
    25µM*	7%	?	0.7%	/	-22%	-2.7
> Cc1cc(NCCO)nc(N2CCOCC2)n1
    0%	8%[15.4 µM]	-9	-7.9%	0	25%	-12
> O=C(O)c1cccc(NC(=O)c2cn(-c3ccccc3)nc2-c2ccncc2)c1
    -2%	7%	13	-5.3%	/	3%	0.1

Further records
Each structure is followed by: Sfp PPTase inh	gsp antag	TRPV1 potentiator	ClpP mod	CtBP-E1A inh	gsp agonist	Menin-MLL FL inh
> COc1ccc(CNC(=O)CN(Cc2cccs2)C(=O)CCC(=O)Nc2ccccn2)cc1
    ?	4%	2	-0.3%	6	-12%[15.4 µM]	-2.4
> O=c1c2cc(F)ccc2[nH]c(=S)n1CCCN1CCOCC1
    4%	8%	-2	-2.8%	3	20%	2.1
> COc1ccccc1/C=C/C=C(\C#N)C(=O)NC(C)c1ccccc1 (stereo not drawn)
    24%	-29%	11	/	-10	1%[15.4 µM]	3.0
> COc1ccc(OC)c(NC(=O)CN(C)S(=O)(=O)c2ccc(Cl)cc2)c1
    7%	-9%	0	2.5%	4	0%	-0.8
> CCCCn1cnc2c(SCc3ccccc3)nc(N)nc21
    /	-3%	/	/	1	0%	/
> O=C1C=C(Nc2ccc(O)cc2)C(=O)c2ccccc21
    -7%	-19%	-6	/	-30	-3%[15.4 µM]	1.6
> CCOC(=O)C1=C(CSc2nccn2C)NC(=O)NC1c1cc(C)ccc1C (stereo not drawn)
    16%	-2%	-8	-1.4%	3	13%	1.9
> CC(NC(=O)c1cccc(C(F)(F)F)c1)C(c1ccccc1)N1CCOCC1 (stereo not drawn)
    -6%	5%	19	/	/	2%[15.4 µM]	0.0
> CN(C)S(=O)(=O)c1ccc2[nH]cc(/C=C/c3nc4ccccc4c(=O)n3-c3ccccc3)c2c1
    5%	-9%	14	22%	-7	8%	13
> COc1ccc(C(CC(=O)NCc2ccccc2)Sc2n[nH]c(-c3ccc(Cl)cc3)n2)cc1 (stereo not drawn)
    5%	6%	-2	0.4%	/	-49%[inhibitor]	0.7

Screens as filed in PubChem BioAssay.
